KSHV LANA nucl = inhibitors of KSHV LANA binding to nucleosomes | FITC-LANA1-23 / chicken nucleosome fluorescence polarization; hits give low values | z-score (test concentration not listed) | hit rate 0.3% among 51,000 | AID 720717;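 active means both repeat wells score below -2 in polarization z-score versus plate sample wells, excluding overly bright wells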;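 further: 100 nL library stock added to about 30 µL; numbers are from one replicate; some results filed as inactive read as strong as hits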
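Test system: purified chicken nucleosomes with FITC-labelled LANA N-terminal peptide (1-23); Input: 240 nM purified chicken nucleosomes (480 nM peptide binding sites), final; Medium: TEN-BT buffer, pH 7.5; Timing: 10–45 min, room temperature; Technique: fluorescence polarization, 480 nm excitation, 535 nm parallel and perpendicular emission; Replication: duplicates.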
BasE inh = BasE siderophore biosynthesis inhibition; purified BasE, fluorescence polarization binding displacement; hit rate 0.1% among 84,000; inhibition, % (no concentration beside the values);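 active means both replicates above 25% with normal brightness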;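 further: 0% = negative plate control signal and 100% = positive plate control signal; stock transfer was 100 nL into about 30 µL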
* hit, by the source's call; & = joins results of further samples. Not all compounds are listed, so the mix of outcomes need not match the whole.

Results for O=C(O)CN1Cc2ccccc2C1=O ?
KSHV LANA nucl: 2.49

Results for COC(=O)CC1c2cc(OC)c(OC)cc2CCN1C(=O)c1cccc(C#N)c1 (stereo not given) ?
BasE inh: -1.1

What do the screens show for `CN1C(=O)c2ccccc2C(C(=O)O)C1c1cccc(F)c1` (stereo not given)?
KSHV LANA nucl: -0.649; BasE inh: 0.4

How did CCOC(=S)SCc1cn2ccc(C)cc2n1 do in these assays?
BasE inh: -1.5

What do the screens show for `COCCn1nnnc1CN1CCC(Cc2ccccc2)CC1`?
KSHV LANA nucl: -0.12; BasE inh: -0.9

What do the screens show for `COc1ccc(NC(=O)c2ccccn2)cc1OC`?
BasE inh: 1.2

What do the screens show for `CCN(CC)S(=O)(=O)c1cccc(C(=O)Oc2cccnc2)c1`?
KSHV LANA nucl: 0.241; BasE inh: 0.4

What do the screens show for `Cc1ccc(Cn2nc(C)c(/C=C/C(=O)Nc3nnc(C4CC4)s3)c2C)cc1`?
BasE inh: 1.1

Results for Cc1cc(-c2ccccc2)nc(=O)[nH]1 ?
KSHV LANA nucl: -0.699; BasE inh: 3.4

Results for COCc1cc(C)nc2sc(C(=O)Nc3ccc(N4CCOCC4)cc3)c(N)c12 ?
KSHV LANA nucl: 0.518; BasE inh: 1.0

What do the screens show for `O=C(c1cc2ccccc2oc1=O)N(Cc1ccc(F)cc1)Cc1ccco1`?
KSHV LANA nucl: 0.369; BasE inh: 2.1

Results for CCC1(C)NC(=O)N(/N=C/c2cccs2)C1=O (stereo not given) ?
BasE inh: 1.0

What do the screens show for `Fc1ccc(CNC2CC2)cc1`?
BasE inh: -0.7

What do the screens show for `COc1cc(-c2nnc(COC(=O)c3ccc(-n4nc(C)cc4C)cc3)o2)cc(OC)c1OC`?
BasE inh: 0.4

How did CC(C)Cn1cc(NC(=O)N2CCN(c3ccccc3)CC2)c2ccccc2c1=O do in these assays?
BasE inh: 0.8

Sorted by SMILES length (low to high): part of the list above.
What do the screens show for `Fc1ccc(CNC2CC2)cc1`?
BasE inh: -0.7

Results for O=C(O)CN1Cc2ccccc2C1=O ?
KSHV LANA nucl: 2.49

How did CCOC(=S)SCc1cn2ccc(C)cc2n1 do in these assays?
BasE inh: -1.5

Results for Cc1cc(-c2ccccc2)nc(=O)[nH]1 ?
KSHV LANA nucl: -0.699; BasE inh: 3.4

What do the screens show for `COc1ccc(NC(=O)c2ccccn2)cc1OC`?
BasE inh: 1.2

What do the screens show for `COCCn1nnnc1CN1CCC(Cc2ccccc2)CC1`?
KSHV LANA nucl: -0.12; BasE inh: -0.9

Results for CCC1(C)NC(=O)N(/N=C/c2cccs2)C1=O (stereo not given) ?
BasE inh: 1.0

What do the screens show for `CN1C(=O)c2ccccc2C(C(=O)O)C1c1cccc(F)c1` (stereo not given)?
KSHV LANA nucl: -0.649; BasE inh: 0.4

What do the screens show for `CCN(CC)S(=O)(=O)c1cccc(C(=O)Oc2cccnc2)c1`?
KSHV LANA nucl: 0.241; BasE inh: 0.4

What do the screens show for `O=C(c1cc2ccccc2oc1=O)N(Cc1ccc(F)cc1)Cc1ccco1`?
KSHV LANA nucl: 0.369; BasE inh: 2.1

How did CC(C)Cn1cc(NC(=O)N2CCN(c3ccccc3)CC2)c2ccccc2c1=O do in these assays?
BasE inh: 0.8

What do the screens show for `Cc1ccc(Cn2nc(C)c(/C=C/C(=O)Nc3nnc(C4CC4)s3)c2C)cc1`?
BasE inh: 1.1

What do the screens show for `COc1cc(-c2nnc(COC(=O)c3ccc(-n4nc(C)cc4C)cc3)o2)cc(OC)c1OC`?
BasE inh: 0.4

Additional records follow:
Results for CC(=O)Oc1ccc(C(=O)NC2CCSC2=O)cc1 (stereo not given) ?
KSHV LANA nucl: -0.289; BasE inh: 1.2

What do the screens show for `O=C(O)c1cc(Cl)ccc1S(=O)c1ccccc1CO` (stereo not given)?
KSHV LANA nucl: 0.443; BasE inh: 0.1

How did CC1CC(C)CN(C(=O)COC(=O)c2ccc(Cl)cc2)C1 (stereo not given) do in these assays?
BasE inh: 0.6

What do the screens show for `Cc1ccc(OC(=O)c2sc3nc(-c4ccc(Cl)cc4)nn3c2C)cc1`?
BasE inh: 1.9

How did O=C1NC(c2ccccc2)Oc2ccccc21 (stereo not given) do in these assays?
KSHV LANA nucl: 2.54; BasE inh: -1.6

How did O=C(O)CCC(=O)Nc1cccc(F)c1 do in these assays?
BasE inh: 3.8

How did c1ccc(-c2noc(CSc3nnc(-c4ccco4)n3-c3ccccc3)n2)cc1 do in these assays?
KSHV LANA nucl: 0.257; BasE inh: 2.1

How did Cc1ccc2[nH]c(=O)cc(C(=O)O)c2c1 do in these assays?
KSHV LANA nucl: -0.839; BasE inh: -2.9

What do the screens show for `Cc1ccc(-c2noc(CN(C(C)C)S(=O)(=O)c3ccc(F)cc3)n2)cc1`?
KSHV LANA nucl: -0.784; BasE inh: -0.5

What do the screens show for `COC(=O)c1cc2c(cc1NC(=O)c1cccc3c1SCCC3=O)OCO2`?
KSHV LANA nucl: -0.089; BasE inh: -2.7

What do the screens show for `CCc1cc(C(=O)NCCN(C)C)cs1`?
KSHV LANA nucl: 1.15; BasE inh: -0.1

How did COc1ccc(C)cc1S(=O)(=O)Nc1ccccc1 do in these assays?
KSHV LANA nucl: 0.853; BasE inh: -0.2

What do the screens show for `Cc1ccc(C2(C(F)(F)F)NC(=O)N3CCN=C3S2)cc1` (stereo not given)?
KSHV LANA nucl: -0.853; BasE inh: 1.4

What do the screens show for `COc1ccc(C(=S)NCC2CCCO2)cc1` (stereo not given)?
KSHV LANA nucl: 1.17; BasE inh: -0.2

How did COc1ccc(C)cc1NC(=O)c1c(C)nc2ccccn12 do in these assays?
KSHV LANA nucl: 1.52; BasE inh: -1.8

What do the screens show for `O=C1CCOc2ccc(Cl)cc21`?
KSHV LANA nucl: 0.334; BasE inh: 1.3

What do the screens show for `CC(C)CCC(=O)Nc1ccc(S(=O)(=O)N2C(C)CCCC2C)cc1` (stereo not given)?
BasE inh: -0.2

What do the screens show for `COC(=O)c1sccc1NS(=O)(=O)c1ccc(C(=O)OC)n1C`?
BasE inh: -0.7

What do the screens show for `COC1=C(OC)C(=O)C(CCCCCCCCCCO)=C(C)C1=O`?
KSHV LANA nucl: -0.0535&0.0835

How did NC1=NC(=O)C(CC(=S)Nc2ccc(N3CCCCC3)cc2)S1 (stereo not given) do in these assays?
BasE inh: 1.7

How did Cc1ccc(CN(C)C(=O)CCN2c3ccccc3Sc3ccccc32)o1 do in these assays?
BasE inh: -0.1

What do the screens show for `O=C(OC1CCCCC1)c1nsc(Cl)c1Cl`?
KSHV LANA nucl: 0.22; BasE inh: 1.6

How did CC(C(=O)NCC1CCCCC1)N1CCN(S(=O)(=O)c2ccccc2F)CC1 (stereo not given) do in these assays?
BasE inh: 3.7

How did O=C(CNCc1ccco1)Nc1ccccc1C(=O)c1ccccc1 do in these assays?
BasE inh: 1.1

How did CCOC(=O)CNc1nnc(SCC(=O)OCC)[nH]c1=O do in these assays?
KSHV LANA nucl: -0.902; BasE inh: 0.9

How did Cc1ccc(NC(=S)Nc2ccccc2C)c(C)c1 do in these assays?
BasE inh: 0.7

Results for CCOC(=O)c1sc(N)c(C#N)c1COC(=O)C12CC3CC(CC(O)(C3)C1)C2 ?
BasE inh: -39.3

How did S=c1[nH]nc(NCCCN2CCOCC2)s1 do in these assays?
BasE inh: -1.4

Results for CC1=NNC(=O)C1C(c1ccccc1)C1C(=O)NN=C1C (stereo not given) ?
KSHV LANA nucl: 0.484; BasE inh: 1.4

What do the screens show for `CC1CCCCN1C(=O)CCS(=O)(=O)Cc1ccccc1` (stereo not given)?
KSHV LANA nucl: 0.982; BasE inh: 1.1

What do the screens show for `O=C(O)CCc1nc2ccccc2c(=O)n1Cc1ccc2c(c1)OCO2`?
BasE inh: 0.3

Results for CC1CCCN(C2CCN(Cc3ccccc3Cl)CC2)C1 (stereo not given) ?
BasE inh: 2.3

Results for CCOc1cc(C(=O)O)ccc1OCCOc1ccccc1 ?
BasE inh: 0.4

What do the screens show for `CCOC(=O)COc1ccc2c(c1)C(=O)CC1(CCN(C(C)=O)CC1)O2`?
KSHV LANA nucl: 0.019; BasE inh: 1.1

What do the screens show for `Cn1c(O)c(C2=c3ccccc3=NC2=O)[nH]c1=S`?
KSHV LANA nucl: -0.066; BasE inh: 1.9

Results for Cc1nn(-c2ccccc2)c(N2CCCC2)c1/C=N/NC(=O)Cn1ccc(C(F)(F)F)n1 ?
BasE inh: 1.8

How did COC(=O)C1(O)CC(=O)c2ccccc2O1 (stereo not given) do in these assays?
KSHV LANA nucl: -0.817

How did CCS(=O)(=O)N1CCN(c2ccc(C)cc2)C(C)C1 (stereo not given) do in these assays?
KSHV LANA nucl: -1.2; BasE inh: 2.4

How did O=C(c1ccccc1)c1ccccc1C(=O)N1CCCC1 do in these assays?
KSHV LANA nucl: 0.159; BasE inh: 2.4

What do the screens show for `O=C(CSc1nc2ccccc2o1)Nc1ccc(Oc2ccccc2)cc1`?
BasE inh: 1.4

Results for O=C(Cn1ccccc1=O)c1ccc(Cl)cc1 ?
KSHV LANA nucl: 0.465; BasE inh: 1.9

How did COCC(C)n1c(C)cc(C(=O)COC(=O)c2c(OC)cccc2OC)c1C (stereo not given) do in these assays?
BasE inh: 1.1

What do the screens show for `COc1cc(/C=C/C(=O)Nc2ccc(S(=O)(=O)N3CCCC3)cc2)cc(OC)c1OC`?
KSHV LANA nucl: -0.703; BasE inh: -2.1

How did CCc1cccc(C)c1NC(=O)C(C)C do in these assays?
KSHV LANA nucl: -0.392; BasE inh: -1.6

What do the screens show for `c1ccc(-n2nnnc2NC2CCCCCC2)cc1`?
KSHV LANA nucl: 0.0045; BasE inh: 3.2

What do the screens show for `Cc1ccc(C(=O)OCC(=O)NC2CCCC2)cc1`?
BasE inh: 0.3

What do the screens show for `CN1CCCc2cc(C#N)c(=O)[nH]c21`?
KSHV LANA nucl: -0.121; BasE inh: 1.4

What do the screens show for `COC(=O)c1c[nH]n2c(=O)cc(C3CCNCC3)nc12`?
KSHV LANA nucl: 0.046; BasE inh: 0.3

Results for CC/C(=N\NC(=O)c1cccnc1)c1cc(F)ccc1O ?
BasE inh: 1.5

What do the screens show for `O=C(NC1CCN(Cc2ccccc2)C1)c1nn(-c2ccccc2)c(=O)c2ccccc12` (stereo not given)?
BasE inh: 0.5

Results for CS(=O)c1scc2c1C(=O)CC(C)(C)C2 (stereo not given) ?
KSHV LANA nucl: -0.169; BasE inh: -1.0

What do the screens show for `O=C1CC(c2ccccc2)Cc2nc(N3CCc4ccccc43)ncc21` (stereo not given)?
KSHV LANA nucl: 0.911; BasE inh: -0.4

How did O=C(OCCCCN1C(=O)c2ccccc2C1=O)c1ccc(Br)o1 do in these assays?
BasE inh: 2.1

How did CCc1noc(C)c1C(=O)Nc1ccc(OC(F)F)cc1 do in these assays?
BasE inh: -0.4

Results for N#CC(C#N)=CNc1c(F)cccc1Cl ?
KSHV LANA nucl: 0.53; BasE inh: 1.1

How did Cc1ccc2c(c1)N(C(=O)CN1C=NS(=O)(=O)c3ccccc31)CCO2 do in these assays?
KSHV LANA nucl: 2.01; BasE inh: -4.5

How did FC(F)(F)c1ncncc1-c1nnnn1-c1ccccc1 do in these assays?
BasE inh: -2.7

Results for Cn1cccc1C(C(=O)NC1CCCCC1)N(C(=O)Cc1cccs1)c1ccccc1 (stereo not given) ?
KSHV LANA nucl: -0.383; BasE inh: -0.2

Results for CC1CCCC(C)N1NC(=S)Nc1ccccc1 (stereo not given) ?
KSHV LANA nucl: -0.0615; BasE inh: -1.9

How did CCOCCCNc1ccc(-c2ccccc2)nn1 do in these assays?
KSHV LANA nucl: 0.085; BasE inh: 0.3

What do the screens show for `CNS(=O)(=O)c1cccc(C(=O)N2CCN(C/C=C/c3ccccc3)CC2)c1`?
BasE inh: 1.2

Results for OC(c1ccc(Br)cc1)C12CN3CN(CN(C3)C1)C2 (stereo not given) ?
KSHV LANA nucl: -0.124; BasE inh: 1.1

How did Oc1ccccc1-c1cc(-c2ccc3c(c2)OCO3)cc(-c2ccccc2)n1 do in these assays?
BasE inh: 1.4

What do the screens show for `S=C1Nc2cccc3cccc(c23)N1`?
BasE inh: 0.6

What do the screens show for `O=C(CC1S/C(=N\N=C2CCCCCCC2)NC1=O)Nc1ccccc1` (stereo not given)?
KSHV LANA nucl: -0.783; BasE inh: -0.1

Results for C#CCOC(=O)Nc1cc(C)n(-c2ccccc2)n1 ?
KSHV LANA nucl: -0.703; BasE inh: 3.9

How did CC(=O)Nc1ccc(C(=O)CSc2ncn(-c3ccccc3)n2)cc1 do in these assays?
KSHV LANA nucl: -0.0735; BasE inh: -0.9

What do the screens show for `COC(=O)/C=C/C1=C(N)c2ccccc2C1(C#N)c1ccccc1` (stereo not given)?
KSHV LANA nucl: 0.236

How did COC(=O)CC1Nc2ccccc2SC1=O (stereo not given) do in these assays?
KSHV LANA nucl: -0.216; BasE inh: 1.5

How did CN(C)CCCN1C(=O)CSC1c1ccc(Cl)c(Cl)c1 (stereo not given) do in these assays?
KSHV LANA nucl: -0.655; BasE inh: 0.8

Results for O=C(CN1CCOCC1)N1c2ccccc2Sc2ccc(Cl)cc21 ?
KSHV LANA nucl: -0.037; BasE inh: -2.3

Results for CCCN(CCC)C(=O)c1ccc(NC(=O)C2=CNCCO2)cc1 ?
KSHV LANA nucl: 0.142; BasE inh: -0.7

Results for O=C1NCCc2c(OCC(=O)N3CCCC3)cccc21 ?
KSHV LANA nucl: -0.364; BasE inh: -0.4

3 compounds out of the list, ordered by SMILES length, low to high:
Results for OC(c1ccc(Br)cc1)C12CN3CN(CN(C3)C1)C2 (stereo not given) ?
KSHV LANA nucl: -0.124; BasE inh: 1.1

Results for O=C(CN1CCOCC1)N1c2ccccc2Sc2ccc(Cl)cc21 ?
KSHV LANA nucl: -0.037; BasE inh: -2.3

How did Oc1ccccc1-c1cc(-c2ccc3c(c2)OCO3)cc(-c2ccccc2)n1 do in these assays?
BasE inh: 1.4

Source: PubChem (ICCB-Longwood Screening Facility, Harvard Medical School)
